Screens: PubChem BioAssay, National Center for Advancing Translational Sciences (NCATS)
miR-21 reporter: miR-21 reporter, rising signal | Potency, µM (highest dose often 38.3 µM), inactives show at the highest dose reporter change, positive = more light | 340,000 tested, under 10 active | HeLa miR-21 FLuc reporter, luciferase, 48 h | AID 2288; active = well fitted rising curve with a large enough effect; inconclusive = small, poorly fitted or top-dose-only effect; inactive = no such curve, though single readings can be large or run the other way;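 further: % of control where 0% means no effect; miR-21 action dims this reporter so a rising signal means less miR-21 action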
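HeLa miR-21-FLuc reporter line, endogenous miR-21; 2000 cells/well in DMEM/10% FBS; compound titration up to ~40uM final, 48 h, 37 degree Celsius; luciferase detection reagent, 15 min lysis, CCD luminescence.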
GLA inh pH 4.5: inhibitors of human alpha-galactosidase A at pH 4.5; P06280; purified enzyme, 4-MU-alpha-Gal fluorescence, pH 4.5; activity change, negative = inhibition, % at 105 µM; 230,000 tested, under 10 active; inconclusive = small, poorly fitted or top-dose-only inhibition, or a rising curve; inactive = flat fitted curve, though single readings scatter; no compound was filed as active;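 further: 0% = full activity with enzyme and -100% = basal without enzyme; dose as in the result columns while the protocol names 77 µM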
Target sequence (P06280 whole entry, looked up): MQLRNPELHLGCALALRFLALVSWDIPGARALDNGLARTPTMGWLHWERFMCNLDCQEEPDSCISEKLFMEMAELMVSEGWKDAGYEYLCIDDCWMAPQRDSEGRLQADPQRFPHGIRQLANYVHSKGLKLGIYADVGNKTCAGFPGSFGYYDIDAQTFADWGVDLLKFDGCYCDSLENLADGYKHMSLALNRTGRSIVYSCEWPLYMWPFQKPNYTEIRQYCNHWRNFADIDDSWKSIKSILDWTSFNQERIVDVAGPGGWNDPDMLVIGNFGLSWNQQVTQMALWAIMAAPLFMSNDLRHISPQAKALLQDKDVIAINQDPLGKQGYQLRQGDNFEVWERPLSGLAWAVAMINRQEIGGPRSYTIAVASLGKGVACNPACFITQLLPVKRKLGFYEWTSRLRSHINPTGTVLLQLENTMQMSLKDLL
Rango complex inh: inhibitors of Rango-importin beta complex formation; 340,000 compounds, 0.031% hits; Potency, µM (top dose mostly 92.2 µM), for inactives: at the top dose inhibition of complex formation; Q14974; Rango CFP/YFP FRET sensor + importin beta, 45 min; active = rising FRET ratio curve, often small or poorly fitted; inconclusive = mostly compound fluorescence or quenching in the first reads; inactive = flat curves in all reads;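 further: potency means the concentration at half of the fitted maximal effect; 0% = DMSO wells and 100% = buffer wells lacking importin beta; nearly all actives have a fitted effect of over 15% in size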
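Inhibition scored from the CFP 486 nm/YFP 530 nm FRET ratio 45 min after adding 0.125 microM importin beta to 50 nM Rango biosensor preincubated 5 min with compound (room temperature, PBS with DTT, Tween-20, BSA). No-importin wells as positive control.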
Rango release inh: inhibitors of RanGTP-induced Rango-importin beta complex dissociation. O95149+P62826. Biochemical FRET Rango-importin beta, RanGTP-induced dissociation. Potency, µM (titrated, usually from 46.1 µM), for the others: at the top dose activity change, negative = inhibition. 340,000 compounds, 0.071% hits. AID 540253; active means falling FRET ratio curve, often poorly fitted, with flat reads before Ran was added; inconclusive means other falling curves, or compound fluorescence or quenching; inactive means flat or rising ratio curve;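 further: potency means the concentration at half of the fitted maximal effect; % of control where 0% means no effect; nearly all actives have a fitted effect of over 45% in size; -100% = wells without RanGTP and RCC1; the record marks most hits as doubtful in a second field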
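Rango (0.1 uM)–importin beta (0.25 uM) complex; RanGTP-RCC1 trigger; 45 min RT; CFP/YFP FRET read.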
Starred values were filed as active, the others as inactive; ? = inconclusive; · = no result given; & = joins results of further samples. An excerpt. The share of hits here may be higher or lower than overall.

entry	compound	miR-21 reporter	GLA inh pH 4.5	Rango complex inh	Rango release inh
1	CCOC(=O)N1CCN(c2c(NCc3cccs3)c(=O)c2=O)CC1	22%	-4	?	-20%
2	Cc1cc2n(n1)SC(Nc1ccc(F)c(Cl)c1)N2 (stereo unspecified)	-39%	3	1.8%	-6%
3	O=C(Nc1ccccn1)[C@@H]1CCC(=O)N1C(=O)OCc1ccccc1	0%	-7	4.9%	-14%
4	Cc1ccc(NC(=O)CN2CCN(c3ccccn3)CC2)cc1S(=O)(=O)N(C)C	-4%	-6	-0.5%	14%
5	CN1CCc2c(OCC(=O)N3CCCc4ccccc43)cccc2C1=O	5%	-22	0.1%	5%
6	O=C(NCc1nnc(SCC(=O)N2CCCc3ccccc32)o1)c1ccccc1F	6%	-8	1.0%	5%
7	COc1ccccc1NS(=O)(=O)c1cccc(-n2c(O)c(C=Nc3ccccc3C(=O)O)c3ccccc3c2=O)c1	26%	-6	?	?
8	Cc1ccc2[nH]c(=O)c3cc(C(=O)N(C)C4CCCCC4)sc3c2c1	-7%	·	-0.6%	0%
9	COc1cc(C(=O)Nc2cc(C)ccc2C)ccc1OCc1c(C)noc1C	·	·	3.4%	17%
10	O=C(CCc1ccccc1)N1CCN(c2ccc([N+](=O)[O-])cc2)CC1	9%	-5	0.6%	-5%
11	Cn1nc(C(F)(F)F)c(-c2ccc(F)cc2)c1NC(=O)c1ccco1	12%	1	0.1%	6%
12	CC(C)(C)C(=O)NC1CC2CCCC(C1)N2C(=O)Nc1ccccc1F (stereo unspecified)	-2%	·	-2.4%	-5%
13	COc1cc(NS(=O)(=O)c2ccc(OC)c(OC)c2)cc(OC)c1	-8%	4	-3.7%	-5%
14	[O-][n+]1onc2c1CCc1[nH]c(-c3ccccc3)nc1-2	-2%	-2	0.9%	-1%
15	CN(C)c1ccc(C(CNS(=O)(=O)c2ccc(F)cc2)c2c[nH]c3ccccc23)cc1 (stereo unspecified)	-3%	-16	-2.1%	1%
16	C=CCn1c(CSc2ccc(C)cc2)n[nH]c1=S	-5%	·	-7.2%	3%
17	O=C(Nc1ccc(Cc2ccc(NC(=O)N3CCOCC3)cc2)cc1)N1CCOCC1	-21%	-4	-0.9%	-1%
18	Cc1cccc(C)c1-n1c(C)cc(/C=N\Nc2ccc([N+](=O)[O-])cn2)c1C	-18%	-4	?	?
19	CCOC(=O)Cn1c(=NC(=O)C2CC2)sc2c(C)cc(C)cc21	-2%	4	-2.2%	20%
20	CCCNC(=O)CN(C)C(=O)c1n[nH]c2ccccc12	2%	2	-1.7%	15%
21	COc1ccc(-c2cc(C(=O)O)no2)cc1	1%	-4&3	-1.9%	4%
22	CCOC(=O)C(Cc1ccc(NC(=O)/C(=C/c2ccccc2)NC(=O)c2ccccc2)cc1)N1C(=O)c2ccccc2C1=O (stereo unspecified)	0%	7	0.5%	1%
23	CN(C)CCNC(=O)c1ccc(COCC(F)(F)F)cc1	-5%	7	-0.9%	-3%
24	CC(C)Cn1cc(C(=O)NCCCN2CCC(C)CC2)c2c3ccccc3n(C)c2c1=O	·	·	-2.9%	16%
25	COC(=O)c1cc(NC(=O)Cn2c(=O)cnc3ccccc32)cc(C(=O)OC)c1	2%	2	4.9%	-1%
26	COc1ccccc1CC(=O)Nc1ccc(F)cc1F	-1%	1	4.9%	-14%
27	Cc1ccc(NC(=O)c2cccnc2C(=O)O)nc1	-10%	·	-2.0%	1%
28	COCC(=O)Nc1cc(OC)ccc1OC	0%	-24	-3.5%	-6%
29	CCCCN1C(N)=NC[C@@H]1Cc1ccc(O)cc1	-2%	1	-1.7%	4%
30	Cc1c(NC(=S)/C=C2\N(C)c3ccccc3C2(C)C)c(=O)n(-c2ccccc2)n1C	4%	0	0.7%	-8%
31	CN(Cc1ccccc1)c1nc2c(c(=O)[nH]c(=O)n2C)n1CCCc1ccccc1	5%	-4	1.8%	8%
32	O=C(Nc1ccc2c(c1)C(=O)NC2=O)c1ccc(Cl)s1	-3%	12	-0.6%	8%
33	O=C(NC1CCCCC1)c1cc2ccccc2cc1O	-39%	2	?	?
34	O=C(c1cccnc1)N1CCN(c2ccc(Cl)cc2)CC1	-1%	13	1.9%	3%
35	CC(C)NS(=O)(=O)c1ccc(NC(=O)NC2CCCCC2)cc1	-32%	-5	-3.7%	21%
36	CCn1c(SCC(=O)N2CCOCC2)nc2ccccc21	-6%	-4	-0.3%	-2%
37	O=C(CSCc1ccccc1)NCCCN1CCOCC1	4%	·	?	18%
38	Cc1ccc(S(=O)(=O)/N=C(/Nc2ccc3[nH]c(=O)[nH]c3c2)c2ccccc2)cc1	-26%	-4	-0.1%	-25%
39	CC(C)CNS(=O)(=O)c1ccccc1C(=O)N1CCCCC1	1%	7	-1.2%	-3%
40	COc1cc(OC)cc(C(=O)NCCOC23CC4CC(CC(C4)C2)C3)c1	5%	-1	-3.0%	7%
41	O=C(Nc1cccc(S(=O)(=O)N2CCOCC2)c1)c1ccc2ccccc2n1	-27%	-1	-0.8%	6%
42	COc1ccc(S(=O)(=O)N(C)C)cc1NC(=O)Cc1ccc(S(=O)(=O)N2CCOCC2)s1	·	·	0.6%	0%
43	Brc1ccc(-c2nn3c(-c4ccccn4)nnc3s2)o1	-19%	5	-0.2%	-20%
44	N#Cc1nc(COc2ccccc2)oc1NCCCn1ccnc1	-39%	-4	-1.5%	27%
45	Cc1ccc(S(=O)(=O)N2CCCOC2CNC(=O)C(=O)NCc2cccs2)cc1 (stereo unspecified)	4%	7	-0.8%	0%
46	O=C1c2cccnc2C(O)N1Cc1ccccc1 (stereo unspecified)	-2%	2	3.7%	1%
47	COC(=O)C1=C(C)Nc2ncnn2C1c1ccc(C)o1 (stereo unspecified)	-16%	6	5.7%	0%
48	COc1cc(OC)c(OC)cc1CN1CCCC(C(=O)N2CCCC2)C1 (stereo unspecified)	-1%	·	-1.1%	-1%
49	Cc1cc(C(=O)Nc2cccc([N+](=O)[O-])c2)c(C)o1	-15%	-6	5.5%	-6%
50	CN(C)S(=O)(=O)N1CCN(CC(O)COc2ccc(-c3ccccc3)cc2)CC1 (stereo unspecified)	14%	·	0.0%	-10%

(more compounds)
entry	compound	miR-21 reporter	GLA inh pH 4.5	Rango complex inh	Rango release inh
51	COCCn1c(=O)[nH]c2cc(C(=O)N3CCN(c4cccc(C)c4C)CC3)ccc2c1=O	3%	·	-0.6%	19%
52	COc1ccc(Cn2c(=S)[nH]c3cc(C(=O)NCCCN4CCOCC4)ccc3c2=O)cc1	0%	·	-0.1%	1%
53	CCCN1C(=O)c2cc(C(=O)NC3CCCC3)ccc2C1O (stereo unspecified)	-11%	-7	-1.8%	6%
54	Cc1cc(=O)[nH]c(Nc2cccc(C(F)(F)F)c2)n1	?	0	3.9%	-5%
55	CC(C)C(=O)NC(=O)[C@@H]1CCCN1C(=O)/C=C/c1ccccc1	-10%	-9	1.6%	-14%
56	CCOC(=O)c1c(C)[nH]c(C)c1C(=O)CN1C(=O)NC2(CCCCCC2)C1=O	·	·	-0.8%	-1%
57	O=C(NCc1ccco1)C1CCCN(S(=O)(=O)c2ccc(-n3cnnn3)cc2)C1 (stereo unspecified)	-1%	-3	-1.1%	-13%
58	COc1ccc(NC(=O)CN(C)C(=O)c2cc3c(cc2Cl)N2CCCCCC2=NS3(=O)=O)cc1	·	·	4.0%	11%
59	COc1ccc(N/N=C/c2c(C(=O)O)ccc3ccccc23)cc1	15%	-4	?	?
60	Cc1ccc(CN2CCN(Cc3cccn3-c3ccccn3)CC2CCO)o1 (stereo unspecified)	-2%	4	-1.3%	-13%
61	COc1ccc(OC)c(C2CC(=O)N3CN(c4cccc(Cl)c4)CSC3=C2C#N)c1 (stereo unspecified)	-4%	-9	-0.2%	-13%
62	Cc1cccc(N2CCN(C(=O)c3ccncc3)CC2)c1C	18%	-2	5.2%	?
63	CNC(=O)CN(c1ccc2c(c1)OCCO2)S(C)(=O)=O	-6%	9	1.9%	-4%
64	COC(=O)C1=C(C)N=c2s/c(=C/c3cccs3)c(=O)n2C1c1ccc(F)cc1 (stereo unspecified)	-2%	1	2.0%	-5%
65	CCN(CC)C(=O)c1ncn(C)c1C(=O)N(CC)CC	·	·	-8.4%	-11%
66	Cc1cc(S(=O)(=O)N2CCOCC2)ccc1OCC(=O)Nc1ccc(F)c(Cl)c1	-1%	·	0.0%	0%
67	C/C(=N/NS(=O)(=O)c1ccc(C)cc1C)c1c[nH]c2ccccc12	10%	·	0.2%	-6%
68	CCOC(=O)c1ccc(C(=O)NNC(=O)C2C3C=CC(C3)C2C(=O)O)cc1 (stereo unspecified)	4%	·	6.0%	9%
69	COc1ccccc1C(=O)NC(CCSC)C(=O)OCC(=O)N1CCCC1=O (stereo unspecified)	·	·	?	-1%
70	CCC(=O)N1CCc2cc(S(=O)(=O)CCC(=O)N3CCCC(C)C3)ccc21 (stereo unspecified)	-2%	·	-3.7%	10%
71	CCC(=O)Nc1ccc(S(=O)(=O)Nc2nccs2)cc1	1%	·	-0.7%	2%
72	Cc1ccc2c(C)c(C(=O)N3CCC(O)(c4ccccc4)CC3)oc2c1C	-2%	·	-0.9%	0%
73	Cc1nn(C)cc1C1C(C#N)=C(N)N(c2ccc(F)c([N+](=O)[O-])c2)C2=C1C(=O)CCC2 (stereo unspecified)	-12%	1	0.6%	-3%
74	Cc1nnc2n(-c3ccccc3)c(=O)c3c4c(sc3n12)COC(C)(C)C4	0%	-6	-0.5%	-8%
75	CCCCOc1ccc(NC(=O)C(=O)NCCC2=CCCCC2)cc1	-2%	2	0.5%	2%

Limited to miR-21 reporter, Rango release inh and GLA inh pH 4.5, for 3 of the compounds above:
#	structure	miR-21 reporter	Rango release inh	GLA inh pH 4.5
66	Cc1cc(S(=O)(=O)N2CCOCC2)ccc1OCC(=O)Nc1ccc(F)c(Cl)c1	-1%	0%	·
3	O=C(Nc1ccccn1)[C@@H]1CCC(=O)N1C(=O)OCc1ccccc1	0%	-14%	-7
50	CN(C)S(=O)(=O)N1CCN(CC(O)COc2ccc(-c3ccccc3)cc2)CC1 (stereo unspecified)	14%	-10%	·

The listing continues:
entry	compound	miR-21 reporter	GLA inh pH 4.5	Rango complex inh	Rango release inh
76	O=C(NNc1nc(-c2ccccc2)cs1)c1ccco1	-19%	-5	-0.4%	-5%
77	CCC1(C(=O)c2ccccc2)C2c3cc(Br)ccc3OC(=O)C21C(=O)N1CCOCC1 (stereo unspecified)	-1%	3	-1.8%	-4%
78	O=C(NCC(c1ccco1)N1CCCC1)c1ccccc1Sc1ccc(C(F)(F)F)cc1[N+](=O)[O-] (stereo unspecified)	·	·	0.0%	21%
79	COc1cc(N)c2ncccc2c1OC	·	·	-5.2%	28%
80	COc1ccc2nc(/C=N/NC(=O)[C@H](CCSC)NC(=O)OC(C)(C)C)ccc2c1	-12%	4	-0.5%	-4%
81	COc1ccc(-c2nnc3ccc(SCC(=O)Nc4cc(C)on4)nn23)cc1OC	-4%	9	-0.4%	-16%
82	CC(C)CCNC(=O)c1ccc2c(c1)ncn2C1CCCCC1	-44%	5	-4.1%	4%
83	O=C(CCc1nc2ccccc2s1)c1ccccc1	-55%	-8	?	0%
84	O=C(CCSCc1cccc(Cl)c1)NC1CCCC1	0%	-5	-1.2%	0%
85	Oc1cc(O)c2c(c1)O[C@H](c1ccc(O)c(O)c1)[C@@H](O)C2	0%	-2&3&6	-5.1%	?
86	COC(=O)CSc1nnc(CNC(=O)c2ccccc2F)n1-c1ccccc1	-1%	-1	1.0%	3%
87	O=C(NCc1ccco1)/C(=C/c1cccc([N+](=O)[O-])c1)NC(=O)c1ccco1	1%	·	4.9%	4%
88	CC1CCC(C(=O)NC(C(=O)NCCCN2CCOCC2)C(C)C)CC1 (stereo unspecified)	-5%	2	-0.9%	-4%
89	CCOC(=O)C1CCCN(CC(O)COC(c2ccccc2)c2ccccc2)C1 (stereo unspecified)	-1%	·	-5.5%	-2%
90	CCN(CC)S(=O)(=O)c1ccc(C(=O)NNC(=O)c2cccs2)cc1	-12%	-5	2.3%	2%
91	O=C(NCc1ccccc1)c1c(F)c(F)c(F)c(F)c1F	2%	-1	2.7%	1%

Profiles from above. Values in the order: miR-21 reporter | GLA inh pH 4.5 | Rango complex inh | Rango release inh
Shown for CCOC(=O)C1CCCN(CC(O)COC(c2ccccc2)c2ccccc2)C1 (stereo unspecified) = -1% | · | -5.5% | -2%
Shown for CCN(CC)S(=O)(=O)c1ccc(C(=O)NNC(=O)c2cccs2)cc1 = -12% | -5 | 2.3% | 2%
